H5N1 CPE: MDCK cell protection from H5N1 avian flu; cytopathic effect, luminescence, 72 h; hits give high values; no value below 0 was filed and about half of the inactive calls have no number; reference of the scale not given here; inhibition, % at 50 µM; 0.07% of 96,000 active; AID 740, 2007; in the data active = inhibition above about 25%
Active calls of the source: *; i = inactive.

SMILES	H5N1 CPE
COCCN1C(=O)c2ccccc2C(C(=O)NCCCN2CCCC2)C1c1c[nH]c2ccccc12 (stereo unspecified)	i
C/C(=C\C(=O)c1ccc(F)cc1)NCc1ccc2c(c1)OCO2	0.9
CCOC(=O)C1CCCN(c2ncnc3c2oc2ccccc23)C1 (stereo unspecified)	i
CC1CCN(C(=O)Cn2c(=O)n(CCc3ccccc3)c(=O)c3ccccc32)CC1	1.0
c1nc(N2CCCCCC2)c2[nH]cnc2n1	4.1
COC(=O)c1nnn(CC(=O)Nc2cc(Cl)ccc2C)c1C(=O)OC	1.9
COc1ccccc1CNS(=O)(=O)c1ccc(NC(C)=O)cc1	0.2
COc1ccc(N2CCN(C(=O)c3cccc(Cn4cc(Cl)cn4)c3)CC2)cc1	i
O=C(Cn1nnc2ccccc2c1=O)N1CCCc2ccccc21	i
CC(=O)Nc1ccc(Nc2ncnc3c2cnn3-c2cccc(C)c2)cc1	0.1
COc1cccc(OCC(O)CN(CCO)Cc2ccccc2)c1 (stereo unspecified)	i
COc1ccc(OC)c(C(=O)COC(=O)c2c(OC)cccc2OC)c1	0.2
COc1ccccc1/C=C/C1=NC(=C\N(C)C)/C(=O)O1	i
CCOC(=O)CNC(=O)CSc1ncnc2c1cnn2-c1ccc(OC)cc1	i
O=S(=O)(Nc1nc2ccccc2nc1NCC1CCCO1)c1cccs1 (stereo unspecified)	i
COC(=O)c1[nH]c2cccc(OC)c2c1NC(=O)CCN1CC(C)CC(C)C1 (stereo unspecified)	i
COc1ccccc1N1CCN(C(=O)c2cccc(N3C(=O)NC4CC3(C)Oc3ccccc34)c2)CC1 (stereo unspecified)	1.4
CSc1nc(NC(C)C)nc(N2CCOCC2)n1	i
COc1cc(C(=O)Nc2nc3ccccc3[nH]2)cc(OC)c1OC	i
O=C(C1CCN(S(=O)(=O)c2cccs2)CC1)N1CCc2ccccc2C1	i
Clc1ccc2nc(N3CCNCC3)nc(-c3ccccc3)c2c1	i
CSc1ccccc1C(=O)N1CCN(c2ccc(F)cc2)CC1	0.8
CCCCCOc1ccc(Cl)cc1CN1CCOCC1	i
Brc1ccc(-c2nc(-c3ccccc3)no2)o1	i
O=C(CNS(=O)(=O)/C=C/c1ccccc1)OCC(=O)N1CCC(Cc2ccccc2)CC1	i
CCOC(=O)CCn1cc(F)c(=O)n(Cc2ccccc2)c1=O	0.3
COc1ccc(Cn2nnnc2C(C(C)C)N(Cc2ccco2)Cc2cccs2)cc1 (stereo unspecified)	2.2
c1ccc(-c2ccccc2OCCn2cncn2)cc1	0.3
O=C1CC(SCCO)C(=O)N1c1ccccc1 (stereo unspecified)	0.7
CCCn1nnnc1SCC(=O)NCc1ccccc1	0.2
CCC1=Nc2ccc(Br)cc2C(c2ccccc2)N1CC(=O)OC (stereo unspecified)	i
CCOC(=O)c1sc(NC(=S)NC(=O)CC(C)C)cc1C	6.4
Brc1ccc(-c2nn3c(-c4ccco4)nnc3s2)o1	1.1
Cc1ccc(C)c(NC(=O)Cn2c([N+](=O)[O-])cnc2C)c1	i
O=C(c1cccnc1)N1C2CCC1CC(O)(c1ccc(F)cc1)C2 (stereo unspecified)	1.0
CS(=O)(=O)c1ccc(Cl)c(C(=O)O)c1	0.6
COc1ccc(OC)c(C2C(C(=O)Nc3cccnc3)=C(C)NC3=C2C(=O)CCC3)c1 (stereo unspecified)	0.5
C=CCn1c(CCC(=O)O)ccc1-c1ccc(OC)cc1	i
O=C(NCCN1CCOCC1)c1cc(-c2ccco2)on1	0.6
C=CCOC(=O)CCC(=O)Nc1cccc2ccccc12	0.4
COc1ccc(CCn2c(O)c(C=NCCN3CCCCC3)c(=O)[nH]c2=O)cc1OC	1.6
Cc1nn(C)cc1CNC(=O)Nc1ccc(Br)cc1Cl	i
Cc1ccc(N2C=Nc3ccc(C)c4nc(C)cc2c34)cc1	1.1
O=C1C2CCCN2C(c2ccccc2F)N1c1cccc(Cl)c1 (stereo unspecified)	i
CCOC(=O)C1CCN(C(=O)COc2ccc(Cl)cc2Cl)CC1	i
c1ccc2c3c([nH]c2c1)-c1[nH]ncc1CC3	i
O=C1CC(SCc2nc3ccccc3[nH]2)C(=O)N1c1ccc(F)cc1 (stereo unspecified)	0.1
CC(C)n1nnnc1SCC(=O)NCc1cccs1	i
N#Cc1ccc(-c2ccc(Cl)cc2)nc1SCC(=O)c1cccc(Cl)c1	i
Cc1nnsc1C(=O)NC1CCCCC1	i
CC(=O)c1cc(-c2ccccc2)n(CCC(=O)NCc2cccs2)c1C	1.1
COc1ccc(-c2cc(N)n(CCC#N)n2)c(OC)c1	0.9
COc1ccc(-c2nnc(SCC(=O)N3CCCCC3)o2)c(OC)c1	i
O=C(Cn1ncc2c(=O)oc3ccccc3c21)NCC1CCCO1 (stereo unspecified)	i
O=C(NCCc1ccccc1)c1cc2ncc(Br)cn2n1	0.5
COc1ccc(CN2CCn3ncc(C(=O)Nc4cc(C)cc(C)c4)c3C2=O)cc1	0.0
Cc1cc(C(C#N)c2cccc(Cl)c2)n2ncnc2n1 (stereo unspecified)	0.0
Cc1cc(C)c(NC(=O)c2ccc(S(=O)(=O)N3CCOCC3)cc2)c(C)c1	i
COc1ccc(NC(=O)C2CC2)cc1-n1cnnn1	0.3
CSc1ccc(CCNC(=O)C2CCN(c3nnc(-n4cccc4)s3)CC2)cc1	1.2
Later entries
SMILES	H5N1 CPE
O=C(NC1CCCC1)C1CCCN1C(=O)Nc1ccccc1 (stereo unspecified)	0.1
COC(=O)C1CCN(C(=O)c2ccccc2Oc2ccccc2)CC1	2.2
Cc1nc(OCc2ccccc2)c2sc3nc4c(cc3c2n1)COC(C)(C)C4	2.5
O=C(CCC1CCCCC1)Nc1c2c(nn1-c1ccc(F)cc1)CS(=O)C2 (stereo unspecified)	i
CCOCCCn1c(C)nc2c(c1=O)c1nc3ccccc3nc1n2CCC1=CCCCC1	3.6
O=C1c2ccccc2C(=O)N1Cc1nc(-c2ccccn2)no1	1.0
Cc1cccc(C)c1NC(=O)CN1C(=O)S/C(=C\c2cccn2C)C1=O	0.3
Cc1ccc(NC(=O)CN(C)c2ccc(S(=O)(=O)N3CCN(C)CC3)cn2)cc1	0.1
c1ccc2nc(N3CCCC3)c(N3CCCC3)nc2c1	3.7
CCCCC(=O)Nc1ccc(C(=O)Nc2ccc(S(=O)(=O)N3CCCC3)cc2)cc1	i
CN(C)S(=O)(=O)N1CCN(CC(O)COc2ccc(C(=O)c3ccccc3)cc2)CC1 (stereo unspecified)	0.3
COc1ccc(-n2nnnc2SCC(=O)c2cc3ccccc3o2)cc1	0.2
COc1ccc(CNC(=O)C(NS(=O)(=O)c2ccc3c(c2)CCCN3C(C)=O)C(C)C)cc1 (stereo unspecified)	0.3
Cn1c(=O)c([N+](=O)[O-])c(NCc2ccccc2)c2ccccc21	0.2
N/C(=N\OC(=O)c1cc(Cl)ccc1Cl)c1cccnc1	i
CC(C)C(c1nnnn1CCc1ccccc1)N1CCOCC1 (stereo unspecified)	i
COc1ccc(C(=O)N2CCN(S(=O)(=O)c3ccccc3)CC2)c(OC)c1	0.4
Cc1sc(NC(=O)c2cc(-c3ccc(Cl)cc3)nc3ccccc23)c(C(N)=O)c1C	i
COc1ccccc1C(=O)Nc1ccc(S(=O)(=O)N2CCOCC2)cc1	i
Cc1ccc(-n2nc(C)c3c2OC(N)=C(C#N)C3c2ccco2)cc1 (stereo unspecified)	i
O=C(O)c1ccc2c(c1)N(Cc1ccccc1)C(=O)c1ccccc1S2=O (stereo unspecified)	0.5
CS(=O)(=O)N(Cc1ccc(Cl)cc1)c1ccc(C(=O)NCCC2=CCCCC2)cc1	1.0
CCC(=O)/C=C1\Sc2ccc(OC)cc2N1CCO	i
Cc1nc2nc(SCC(=O)N3CCC4(CC3)OCCO4)nn2c(C)c1Cc1ccccc1	0.1
Cc1noc(/C=C/N(C)C)c1S(=O)(=O)N1CCCC(C(=O)NCc2ccc(Cl)cc2)C1 (stereo unspecified)	0.6
S=c1[nH]ncc2ccccc12	0.2
O=C(OC1CCS(=O)(=O)c2sccc21)c1ccccc1 (stereo unspecified)	1.1
COc1cc(/C=N/NC(=O)c2cnn3c(C)cc(-c4ccccc4)nc23)ccc1O	1.8
CCCn1nnc(NC(=O)c2cc(Br)ccc2OC)n1	i
CC(C)(C)c1ccc(C(=O)Nc2nonc2-c2nc3ccccc3[nH]2)cc1	1.1
O=C(Nc1ccc(Br)cc1)c1cccnc1N1CCCCC1	i
COCCCNC(=O)CCc1nc2cccnc2n1Cc1ccccc1	i
COc1ccc(C(=O)Nc2cc(C)ccc2NC(=O)COc2ccccc2)cc1	0.2
COCCNC(=O)CSc1nc2nc(C)cc(C)n2n1	0.7
CN(CCNC(=O)c1cccc(N2CCCC2=O)c1)Cc1ccccc1	0.2
COc1cc(N2CCCC2)c(OC)cc1/C=C(/C#N)c1cccc(Br)c1	3.1
CCOc1ccc(C2C=C(c3ccccc3)Nc3ncnn32)cc1 (stereo unspecified)	2.5
COc1ccc(/C=C/C(=O)c2sc(-c3ccccc3)nc2C)cc1	0.4
O=c1[nH]c(N2CCN(Cc3ccc4c(c3)OCO4)CC2)nc2c1CCC2	0.6
COC(=O)c1cc2nc(-c3ccccc3)cc(C)n2n1	0.3
C=CCn1c(N)nc2ccccc21	0.5
O=c1oc(-c2cccs2)nc2scc(-c3cccs3)c12	i
CC(=O)NC(Cc1cc(C)ccc1C)C(=O)N1CCN(C(=O)Nc2ccc(C(C)=O)cc2)CC1 (stereo unspecified)	i
O=C1C2C3C=CC(C4CC34)C2C(=O)N1/N=C/c1ccc(-c2ccc(Cl)cc2[N+](=O)[O-])o1 (stereo unspecified)	i
CC1(C)CC(=O)c2c(-c3cccnc3)n[nH]c2C1	1.0
Cc1ccc(-c2nn(CCC(=O)NCC3CCCO3)c(=O)c3ccccc23)cc1 (stereo unspecified)	1.1
CC(C)C(C(=O)NCC1CCCO1)N(Cc1ccco1)C(=O)CNS(=O)(=O)c1ccc(F)cc1 (stereo unspecified)	0.1
Cc1ccccc1C1NS(=O)(=O)N=C1N (stereo unspecified)	i
CCOC(=O)C1CCN(S(=O)(=O)c2ccc(Cl)cc2OC)CC1	0.7
CCN(CC)CCOc1nnc(-c2ccc(C)cc2)c2ccccc12	i
Cc1cc(C)nc(NS(=O)(=O)c2ccc(Br)cc2)n1	i
CCN(CC)C(=O)C(C)OC(=O)c1ccc(O)cc1 (stereo unspecified)	0.3
CCOC(=O)c1c(C)[nH]c(C(=O)COC(=O)CSCC(=O)N(CC)CC)c1C	i
Cn1c(CCNC(=O)c2ccco2)nc2cc(NS(=O)(=O)c3ccccc3)ccc21	i
Cc1cc(NC(=O)C2CCCN(S(=O)(=O)c3cnc[nH]3)C2)ccc1Br (stereo unspecified)	3.0
Cn1c(SCc2c(F)cccc2Cl)nnc1-c1cccs1	0.5
CCCNC(=O)Cn1c2ccccc2c2nc(=O)cc(C)n21	0.8
O=C(Cc1cn2ccsc2n1)Nc1ccccn1	5.4
COn1c(-n2nc(C)cc2C)nc2ccccc2c1=O	i
CC(C)Sc1nnc(-c2c[nH]c3ccccc23)n1C	1.3

Ordered by number of heavy atoms (descending): 14 of the compounds above
SMILES	H5N1 CPE
CC(=O)NC(Cc1cc(C)ccc1C)C(=O)N1CCN(C(=O)Nc2ccc(C(C)=O)cc2)CC1 (stereo unspecified)	i
O=C1C2C3C=CC(C4CC34)C2C(=O)N1/N=C/c1ccc(-c2ccc(Cl)cc2[N+](=O)[O-])o1 (stereo unspecified)	i
Cn1c(CCNC(=O)c2ccco2)nc2cc(NS(=O)(=O)c3ccccc3)ccc21	i
Cc1ccc(-c2nn(CCC(=O)NCC3CCCO3)c(=O)c3ccccc23)cc1 (stereo unspecified)	1.1
CCOC(=O)c1c(C)[nH]c(C(=O)COC(=O)CSCC(=O)N(CC)CC)c1C	i
CCN(CC)CCOc1nnc(-c2ccc(C)cc2)c2ccccc12	i
CCOC(=O)C1CCN(S(=O)(=O)c2ccc(Cl)cc2OC)CC1	0.7
CCCNC(=O)Cn1c2ccccc2c2nc(=O)cc(C)n21	0.8
Cn1c(SCc2c(F)cccc2Cl)nnc1-c1cccs1	0.5
O=c1oc(-c2cccs2)nc2scc(-c3cccs3)c12	i
CCN(CC)C(=O)C(C)OC(=O)c1ccc(O)cc1 (stereo unspecified)	0.3
CC1(C)CC(=O)c2c(-c3cccnc3)n[nH]c2C1	1.0
Cc1ccccc1C1NS(=O)(=O)N=C1N (stereo unspecified)	i
C=CCn1c(N)nc2ccccc21	0.5

(more compounds)
SMILES	H5N1 CPE
COC(=O)c1c(O)c2ccccc2[nH]c1=O	i
COC(=O)C1=C(C(=O)OC)C2(OC1c1cccc(F)c1)C(=O)c1ccccc1C2=O (stereo unspecified)	0.2
COc1ccc(CCN2C(=O)CC(NCCc3ccc(S(N)(=O)=O)cc3)C2=O)cc1OC (stereo unspecified)	0.2
CCOC(=O)c1cc(C)n(-n2cnnc2)c1C	0.1
C=CCN1CC(c2nc3ccccc3n2CCOc2ccccc2)CC1=O (stereo unspecified)	i
O=C(CCS(=O)(=O)Cc1ccccc1)Nc1nc2c(s1)CCCC2	i
Cc1cc(C)nc(SCC(=O)Nc2ccc(S(=O)(=O)NCCO)cc2)n1	0.7
COc1ccc(OCc2nnc(SCC(=O)N3CCCc4ccccc43)n2-c2ccc(C)cc2)cc1	0.7
O=C(c1ccc(Br)o1)N1CCN(c2ncccn2)CC1	i
CCOc1ccc(N2CC(C(=O)NC(C)C)CC2=O)cc1 (stereo unspecified)	0.2
CC1CCc2cc(F)ccc2N1C(=O)c1cc2nc(-c3ccco3)cc(C(F)(F)F)n2n1 (stereo unspecified)	i
CCOC(=O)c1cccc(NC(=O)CN(c2ccc(OC)cc2)S(=O)(=O)c2c(C)noc2C)c1	i
CSc1nnc(N(CCC#N)CCC#N)s1	i
CCN(CC)CCCNC(=O)c1c(O)c2ccccc2n(Cc2ccccc2)c1=O	i
CCn1nnc(NC(=O)CSc2ccc(Cl)cc2)n1	i
COC(=O)C(C)(C)NC(=O)c1cccs1	i

An excerpt. The share of hits here may be higher or lower than overall.
